UCH37 inh: blocks the human deubiquitinase UCH37 | Q9Y5K5 | purified proteasome/UCH37, Ub-AMC cleavage fluorescence | inhibition, % (test concentration not listed) | 330,000 tested, 0.33% active;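 active = mean of two replicates above 20%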;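 also: 0% = compound-free wells with enzyme and 100% = wells lacking proteasome; stock transfer was 100 nL into about 20 µL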
Target sequence (Q9Y5K5 whole entry, looked up): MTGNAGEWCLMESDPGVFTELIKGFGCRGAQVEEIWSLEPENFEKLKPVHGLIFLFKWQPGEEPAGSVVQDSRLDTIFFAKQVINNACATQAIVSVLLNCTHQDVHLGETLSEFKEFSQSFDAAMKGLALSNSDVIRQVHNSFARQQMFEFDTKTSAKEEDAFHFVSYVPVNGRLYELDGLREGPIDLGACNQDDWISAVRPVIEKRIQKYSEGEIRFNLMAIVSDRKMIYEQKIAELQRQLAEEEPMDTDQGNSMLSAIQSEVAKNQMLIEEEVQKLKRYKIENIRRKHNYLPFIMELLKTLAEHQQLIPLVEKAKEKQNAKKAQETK
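Material: human UCH37 enzyme supplied as purified proteasome complex / Amount: 0.15 nM proteasome as dispensed / Buffer or medium: pH 7.4 Tris-HCl (50 mM) with ovalbumin, ATP-MgCl2, DTT / Times: preincubation 30 min, reaction 25 min, room temperature / Technique: AMC fluorescence from Ub-AMC cleavage, excitation 355 nm, emission 460 nm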
B2AR ag: human beta-2 adrenergic receptor agonism by FAP; P07550; Am2.2-beta2AR cells, FAP receptor internalization, flow cytometry; reference of the scale not given here; response, % (concentration not given with the values); 340,000 tested, 0.43% active; AID 504454;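 active = response above a set limit, near 3 SD of response in nonfluorescent compounds, cut at about 42% in these data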;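 also: stock transfer was 100 nL into about 11 µL; a reference agonist was the positive control; negative values mostly stem from fluorescent compounds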
Target sequence (P07550 whole entry, looked up): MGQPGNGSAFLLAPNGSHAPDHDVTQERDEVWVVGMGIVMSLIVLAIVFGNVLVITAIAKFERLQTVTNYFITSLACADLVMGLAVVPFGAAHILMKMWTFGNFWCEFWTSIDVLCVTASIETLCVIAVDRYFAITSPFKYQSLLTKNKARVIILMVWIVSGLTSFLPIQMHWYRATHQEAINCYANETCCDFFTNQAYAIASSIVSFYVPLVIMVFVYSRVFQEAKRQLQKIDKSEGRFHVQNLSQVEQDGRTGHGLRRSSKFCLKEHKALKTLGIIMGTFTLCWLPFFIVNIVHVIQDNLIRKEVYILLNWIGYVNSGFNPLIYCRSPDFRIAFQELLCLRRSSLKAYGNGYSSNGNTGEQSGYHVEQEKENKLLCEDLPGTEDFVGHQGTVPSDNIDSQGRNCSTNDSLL
* hit, by the source's call. A portion of the library; rates above refer to the full screens.

Start of the listing, in advance:
SMILES	UCH37 inh	B2AR ag
CCOC(=O)C1=CNS(=O)(=O)NC1c1ccccc1 (stereo not given)	-7.7	-4
NC(=O)C1CCN(C(=O)C2CCN(C(=O)Nc3ccccc3)CC2)CC1	-0.2	-9
COc1ccc(CC2(c3ccccc3)NC(=O)NC2=O)cc1 (stereo not given)	0.1	7
O=C1CC(c2ccccc2)C(=O)N2C(=O)CC(c3ccccc3)C(=O)N12 (stereo not given)	1.5	2
CCOC(=O)c1c(CSC(=N)N)n(-c2ccc(Br)cc2)c2cc(Br)c(OC(C)=O)cc12	6.8	7
CC(C)(C)S(=O)(=O)N1Cc2cc(CO)cc(CCO)c2[C@H]1CCO	-1.2	-5

The list itself (from the top)
SMILES	UCH37 inh	B2AR ag
CCOC(=O)C1=CNS(=O)(=O)NC1c1ccccc1 (stereo not given)	-7.7	-4
NC(=O)C1CCN(C(=O)C2CCN(C(=O)Nc3ccccc3)CC2)CC1	-0.2	-9
COc1ccc(CC2(c3ccccc3)NC(=O)NC2=O)cc1 (stereo not given)	0.1	7
O=C1CC(c2ccccc2)C(=O)N2C(=O)CC(c3ccccc3)C(=O)N12 (stereo not given)	1.5	2
CCOC(=O)c1c(CSC(=N)N)n(-c2ccc(Br)cc2)c2cc(Br)c(OC(C)=O)cc12	6.8	7
CC(C)(C)S(=O)(=O)N1Cc2cc(CO)cc(CCO)c2[C@H]1CCO	-1.2	-5
CC(=NNC(=O)c1ccncc1)c1ccc(Cl)c(Cl)c1	2.4	1
O=C(CSc1nnc(SCC(=O)NCc2ccc3c(c2)OCO3)s1)NCc1ccc2c(c1)OCO2	1.6	26
CC1CCC(CC(=O)O)(C(=O)O)CC1 (stereo not given)	1.6	2
Cc1c(NC(=O)c2cccc(NC(=O)COc3ccc(C#N)cc3)c2)c(=O)n(-c2ccccc2)n1C	5.6	0
COc1ccc(C2C(C(=O)c3ccccc3)N3c4ccccc4C=CC3C2[N+](=O)[O-])cc1 (stereo not given)	9.4	-8
COc1ccc(N=C2c3ccccc3-c3ccc([N+](=O)[O-])cc32)cc1	2.9	-21
CC1=CC(C)(C)N(C(=O)CSc2nnc(N)s2)c2c(C)cc(C)cc21	6.2	-8
CC(=O)Nc1ccccc1-c1ccccc1[N+](=O)[O-]	1.0	6
CCOc1ccccc1N1CCN(C(=O)c2cc3ccccc3cc2OC)CC1	3.2	-2
CC(C)[C@H]1COCCS(=O)(=O)N1Cc1ccccc1-c1ccccc1	5.9	-7
O=C(C[C@H]1C[C@H](C(=O)N2CCOCC2)[C@@]2(CCC3CCCC3)c3[nH]c4ccc(Cl)cc4c3CCN2C1=O)NCCN1CCOCC1	4.4	-6
CCOc1ccccc1NC(=O)c1c(NC(=O)CCC(=O)O)sc2c1CCCCC2	0.2	14
CC1=CC(C)(C)NC(=S)N1CCO	1.8	-2
Cc1ccc(OCCNC(=O)c2cccc(S(=O)(=O)NCc3ccccc3)c2)cc1	1.8	-2
O=C(NNC(=O)c1cccc2ccccc12)c1cccc(Br)c1	3.1	-13
CC(=O)Nc1ccc2c(c1)C(=Nc1cccc(C)c1)c1ccccc1-2	2.6	-14
CCN(c1ccccc1)S(=O)(=O)c1ccc(C(=O)NCC(c2ccccc2OC)N2CCCC2)cc1 (stereo not given)	0.7	12
COc1ccc(S(=O)(=O)NCC(c2cccnc2)N2CCN(c3ccccc3OC)CC2)cc1C (stereo not given)	0.6	6
C[C@@H]1CN[C@H](CCO)/C1=C\c1ccccc1	0.5	4
COc1ccc(CC(=O)OCC(=O)N2CCN(S(=O)(=O)c3ccc(C)cc3C)CC2)cc1OC	-0.6	-4
COc1cccc(CCC2C(=O)CCCC2=O)c1	3.0	-1
O=C(CCN1C(=O)NC2(CCCC2)C1=O)Nc1ccc(-c2nc3ccccc3s2)cc1	-37	40
CCN(C(=O)CSc1nnc(-c2ccccc2F)n1N)c1c(N)n(Cc2ccccc2)c(=O)[nH]c1=O	3.5	-9
NC(=O)C1C2C=CC(C2)C1c1ccccc1 (stereo not given)	-1.8	-6
CCOC(=O)C1(C(=O)OCC)NC(=O)CC1C (stereo not given)	2.2	-4
CC(C)[C@@H](CO)NS(=O)(=O)c1ccc(Br)cc1F	-1.4	-2
COC(=O)[C@@]1(C)[C@H]2C(=O)N(Cc3ccccc3)C(=O)[C@H]2[C@H]2CN=C(SCC(=O)c3ccccc3)N21	3.1	-2
c1ccc(CSc2ncnc3c2ncn3C2CCCCO2)cc1 (stereo not given)	5.2	-4
CCOC(=O)C1=C(C)N(C[C@@H]2CC[C@@H](Cc3ccc(-c4ccccc4)cc3)O2)C(=O)NC1c1ccc(Cl)cc1 (stereo not given in full)	1.0	-8
COc1cc2c(Cc3ccccc3)cncc2cc1O	-17	1

Entries of single compounds, looked up by structure.
CCN(C(=O)CSc1nnc(-c2ccccc2F)n1N)c1c(N)n(Cc2ccccc2)c(=O)[nH]c1=O reads UCH37 inh = 3.5; B2AR ag = -9
CCOc1ccccc1N1CCN(C(=O)c2cc3ccccc3cc2OC)CC1 reads UCH37 inh = 3.2; B2AR ag = -2
COc1ccc(S(=O)(=O)NCC(c2cccnc2)N2CCN(c3ccccc3OC)CC2)cc1C (stereo not given) reads UCH37 inh = 0.6; B2AR ag = 6

Additional records follow:
SMILES	UCH37 inh	B2AR ag
Cc1cc(C)n(-c2ccc(C(=O)OC(C)C(=O)Nc3ccc(C(N)=O)cc3)cc2)n1 (stereo not given)	4.7	5
O=S(=O)(NCCc1ccc(F)cc1)c1cc(C(F)(F)F)ccc1Br	3.9	0
COc1ccc(-c2nnc(N)s2)cc1OC	-5.3	3
CC(=O)Nc1ccc(NC(=O)c2ccc(-c3ccccc3Cl)o2)cc1	-82	3
Cc1ccc(C(=O)Oc2coc(CSc3nnc(NC(=O)C4CC4)s3)cc2=O)cc1C	7.5	11
Cc1ccc(S(=O)(=O)NCC(=O)OCc2csc(CC(=O)Nc3ccccc3C)n2)cc1C	2.9	4
O=C(COC(=O)c1cnc(Cl)c(Cl)c1)NC1CCCCCC1	5.5	22
Cc1ccccc1N(C)S(=O)(=O)c1ccc2[nH]cc(C(=O)NCC3CCCO3)c(=O)c2c1 (stereo not given)	-11	0
Cc1c(C(=O)OCC(=O)N(CC(C)C)c2c(N)n(Cc3ccccc3)c(=O)[nH]c2=O)oc2ccccc12	-2.1	-8
O=C(Nc1cc(S(=O)(=O)N2CCOCC2)ccc1Cl)c1ccc(=O)[nH]c1	4.9	6
CC1(c2ccc3ccccc3c2)NC(=O)N(CC(=O)N2CCN(Cc3ccc(C#N)cc3)CC2)C1=O (stereo not given)	2.9	-4
CCCn1c(SCC(=O)N(CC)c2c(N)n(Cc3ccccc3)c(=O)[nH]c2=O)nnc1-c1ccncc1	3.5	-2

Laid out differently: entries from further up
Structure,UCH37 inh,B2AR ag
Cc1ccc(C(=O)Oc2coc(CSc3nnc(NC(=O)C4CC4)s3)cc2=O)cc1C,7.5,11
COc1ccc(-c2nnc(N)s2)cc1OC,-5.3,3
O=C(Nc1cc(S(=O)(=O)N2CCOCC2)ccc1Cl)c1ccc(=O)[nH]c1,4.9,6
Cc1ccc(S(=O)(=O)NCC(=O)OCc2csc(CC(=O)Nc3ccccc3C)n2)cc1C,2.9,4
Cc1cc(C)n(-c2ccc(C(=O)OC(C)C(=O)Nc3ccc(C(N)=O)cc3)cc2)n1 (stereo not given),4.7,5
Cc1c(C(=O)OCC(=O)N(CC(C)C)c2c(N)n(Cc3ccccc3)c(=O)[nH]c2=O)oc2ccccc12,-2.1,-8

Continued:
SMILES	UCH37 inh	B2AR ag
CCC[C@@H](CN1CCC[C@H]1CN1C(N)=NC[C@H]1CC(C)C)N1C[C@@H]([C@H](C)CC)N(CCCC2CCCC2)C1=N	2.8	2
CN(CC(=O)Nc1cccc(F)c1)C(=O)c1ccc2c(c1)CC(c1ccccc1)OC2=O (stereo not given)	1.1	-7
CC(OC(=O)c1cnccn1)C(=O)Nc1nc(-c2cccc([N+](=O)[O-])c2)cs1 (stereo not given)	1.5	1
O=C(CCc1ccccc1)N[C@@H]1c2ccccc2CC[C@H]1OCc1ccccc1	1.7	-5
NC(=S)NN=C1CCC2(CCCCC2)CC1	2.6	-5
CC(C)NC1(C(N)=O)CCN(Cc2ccccc2)CC1	-0.3	-4
CCN(c1ccccc1)S(=O)(=O)c1ccc(C(=O)NCc2ccccn2)cc1	-0.4	2
O=C(COC(=O)c1ccc(S(=O)(=O)N2CCCCC2)cc1)Nc1ccccc1Cl	2.5	6
COc1ccc(NC(=O)NC[C@@H]2CC[C@@H](Cc3ccc(-c4ccccc4)cc3)O2)cc1	1.9	1
Cc1cc(C)cc(NC(=S)N2CCC(C(=O)c3ccc(F)cc3)CC2)c1	6.3	0
C=CCn1c(C)cc(-c2csc(NC(=O)C3CCN(c4ncnc5sc(C)c(C)c45)CC3)n2)c1C	1.5	8
NC(=O)CSc1nnc(COc2ccccc2)n1C1CCCCC1	5.5	-9
Cc1cc(C)c(S(=O)(=O)N2CCN(c3ccccn3)CC2)c(C)c1	3.7	-1
Clc1ccc(-c2nnc(-c3cccc4ccccc34)o2)cc1	-153	9
COc1cc(C(=O)N2CCN(S(=O)(=O)c3ccc(Cl)cc3)CC2)ccc1OCC(=O)N1CCOCC1	6.4	5
COc1ccc(NC(=O)C2CCCCN2S(=O)(=O)c2ccccc2)cc1S(=O)(=O)N1CCOCC1 (stereo not given)	0.0	2
CCCCN(C(=O)c1cc2c(s1)CCCCC2)c1c(N)n(CC(C)C)c(=O)[nH]c1=O	1.6	5
CC(C)CNC(=O)c1ccccc1C(=O)NC1(C(=O)NCC(C)C)CCCC1	-0.6	-2
CCOC(=O)c1cnc(Nc2nc3ccccc3o2)nc1CN1CCN(C)CC1	3.7	-13
O=c1nc2onnc2c(C=NO)[nH]1	4.5	-2
O=C(CSc1nc2ccccc2c(=O)n1-c1ccc(F)cc1)NC1CCS(=O)(=O)C1 (stereo not given)	1.3	-3
Cc1cc(C)n2nc(C(=O)Nc3cccc(S(=O)(=O)N4CCOCC4)c3)nc2n1	3.5	-9
CC1CC1C(=O)OCC(=O)Nc1cccc(Br)c1 (stereo not given)	0.2	11
CCN(CC)CCn1c(SCC(=O)Nc2ccc3c(c2)CCC3)nc2ccccc2c1=O	5.1	7
CCN(C(=O)c1ccncc1)c1c(N)n(Cc2ccccc2)c(=O)[nH]c1=O	-0.7	0
C=CCn1cnnc1SCC(=O)NCC1COc2ccccc2O1 (stereo not given)	2.2	-11
COCCOC(=O)C1=C(C)NC(=S)NC1c1ccc(OCC(=O)N2CC(C)OC(C)C2)c(OC)c1 (stereo not given)	5.6	12
O=C(O)c1ccc(CCCc2ccccc2)cc1	0.2	1
CC(Sc1nnnn1C1CC1)C(=O)Nc1cccc(S(=O)(=O)N2CCOCC2)c1 (stereo not given)	0.0	15
CCOc1ccccc1C(=O)NC(C(=O)N(C)c1c(N)n(Cc2ccccc2)c(=O)[nH]c1=O)C(C)C (stereo not given)	3.1	2
CCN(CC)CCOC(=O)c1ccc(N=CC2=C(O)CC(C)(C)CC2=O)cc1	13	-8
Cc1ccc(OCc2occc2C(=O)O)cc1	-0.9	3
Cc1ccc(S(=O)(=O)N2CCN(C(=O)COC(=O)CC(C)c3ccccc3)CC2)c(C)c1 (stereo not given)	-0.3	-2
CCN(C(=O)COC(=O)c1cc2ccccc2cc1OC)c1c(N)n(Cc2ccccc2)c(=O)[nH]c1=O	-111	-2
